Ecoli rRNA inh – selective bacterial rRNA inhibition in E. coli; 350,000 compounds, 1.6% hits; AID 720706; E. coli WT GFP vs humanized-ribosome RFP mutants, fluorescence, 24 h; active compounds read low; DMSO median 0, no signal -100; GFP signal change (wild-type ribosome), % (concentration not given with the values);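 active = significant combined selectivity score with lowered wild-type GFP, culture density cut under 30%, mutant RFP and density less affected; inactive = any of these conditions unmet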; also: one replicate is shown; some compounds called inactive have numbers as strong as hits
T cruzi repl – T. cruzi replication inhibition; inhibition, % (test concentration not listed); T. cruzi beta-gal in NIH3T3, luminescence, 90 h; AID 1885; 300,000 compounds, 1.4% hits;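 active = mean inhibition across valid replicates above about 55%, limit read from the data; inconclusive = mean below that limit but half or more replicates reach it; inactive = mean below it, under half of replicates reach it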;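 also: signal also drops with host cell toxicity which is not excluded here; 0% = plate median of DMSO wells and 100% = zero luminescence signal; higher percent means less beta-gal luminescence so fewer parasites; stock transfer was 50 nL into about 50 µL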
Beta apoptosis – beta cell apoptosis inhibition; INS-1E cytokine-induced death, ATP luminescence, 48 h; percent of positive-control rescue, neutral wells zero; protection from apoptosis, % (no concentration beside the values); 300,000 compounds, 0.8% hits; AID 435005;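 active = all replicates at 75% or more, or half of them and the mean; inconclusive = half reach 75% but not the mean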;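 also: 0% = cytokine-treated negative control wells and 100% = positive control rescue; higher means more ATP so stronger rescue from cytokine killing; wells of about 40 µL received 100 nL stock; the first replicate is given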
Calb FLC – affects C. albicans growth with fluconazole. C. albicans CaCi-2 (fluconazole-resistant clinical isolate) + fluconazole, Alamar Blue growth, 48 h. 300,000 compounds, 0.57% hits. AID 1979. growth inhibition, % (no concentration beside the values);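 active = most replicates above 75%; inconclusive = exactly half above 75%; inactive = most below 75%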;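 also: all wells also contain fluconazole at 8 µg/ml as a sub-toxic cotreatment; 0% = median of DMSO wells and 100% = median of geldanamycin control wells; wells of about 8 µL received 7.5 nL stock; the first replicate is given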
A1 inh – inhibitors of the anti-apoptotic protein A1, read as caspase activation. MEF A1-2A-BIM cells, Caspase-Glo 3/7 luminescence, 3 h; percent of clofoctol response, vehicle zero. 330,000 compounds, 0.066% hits. caspase activation, % (test concentration not listed);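 active = over half of replicate activation scores above 10%, or exactly half above 10 with the replicate mean above 10; inconclusive = replicate mean below 10 yet half the replicates above 10; inactive = over half of replicates below 10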;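 also: wells of about 30 µL received 50 nL stock; many hits fall short of the cut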
MLL AF4-AF9 inh – MLL-AF4/AF9 protein interaction inhibition; P42568; AlphaScreen, biotin-AF4 peptide binding to FLAG-AF9; inhibition, % at 10 µM; 350,000 compounds, 0.47% hits; AID 651704;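 active = every replicate reaching a set inhibition limit, whatever the replicate mean, cut at about 25% in these data; inconclusive = mean inhibition reaches that limit but some replicates miss it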;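 also: 0% = plate neutral control median and 100% = total signal loss; the record names both 10 and 1 µM as test concentration; the first replicate is given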
Target sequence (P42568 whole entry, looked up): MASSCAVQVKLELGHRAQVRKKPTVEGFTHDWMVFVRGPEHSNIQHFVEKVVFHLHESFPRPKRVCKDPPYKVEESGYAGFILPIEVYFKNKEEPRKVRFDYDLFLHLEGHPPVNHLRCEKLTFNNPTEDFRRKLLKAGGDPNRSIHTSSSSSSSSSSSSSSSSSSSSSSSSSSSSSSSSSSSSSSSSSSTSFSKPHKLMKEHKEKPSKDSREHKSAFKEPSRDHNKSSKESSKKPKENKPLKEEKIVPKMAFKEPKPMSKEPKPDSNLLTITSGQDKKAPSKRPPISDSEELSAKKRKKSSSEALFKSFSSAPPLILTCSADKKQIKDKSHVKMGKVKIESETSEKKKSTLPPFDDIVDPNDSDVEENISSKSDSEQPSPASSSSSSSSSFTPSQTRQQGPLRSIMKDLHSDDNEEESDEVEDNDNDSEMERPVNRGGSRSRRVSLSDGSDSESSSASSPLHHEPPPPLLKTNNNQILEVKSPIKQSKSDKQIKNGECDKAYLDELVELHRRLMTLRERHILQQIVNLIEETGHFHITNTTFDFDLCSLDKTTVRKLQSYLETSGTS
Vif TR-FRET – inhibitors of Vif binding to APOBEC3G peptide, primary screen, biochemical, TR-FRET, GST-Vif 1-94, biotin-A3G peptide, dose response retest (AID 1117319); 260,000 compounds, 0.57% hits; TR-FRET GST-Vif / biotin-A3G peptide binding; higher % means a stronger effect; test concentration not given here; strong numbers were not always called active; inhibition, %, or IC50 in µM where a hit was titrated;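 active = above the screen mean plus three standard deviations and confirmed in dose response; inconclusive = results disagree or hit not tested in dose response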;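 also: Vif residues 1-94 fused to GST binding biotinylated APOBEC3G peptide 110-148; 0% = full assay without inhibitor and 100% = GST in place of GST-Vif; retest series ran down from 100 µM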
RanGTP-Impb inh – inhibitors of RanGTP-importin-beta interaction, primary screen, biochemical, FRET, CFP-Ran, YFP-importin-beta, homogeneous; inhibition, % (test concentration not listed); cell-free CFP-Ran/YFP-importin-beta FRET ratio; 300,000 compounds, 1.1% hits;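 active = most replicates above 15%; inconclusive = exactly half above 15%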;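 also: 0% = DMSO wells and 100% = Ran loaded with GDP instead of GTP; wells of about 40 µL received 100 nL stock; the first replicate is given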
Ecoli rRNA inh OD600 – recorded beside Ecoli rRNA inh, whose call it bears; OD600 change, %; measured here: OD600 growth;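 optical density of the mix in the first replicate; 0 = DMSO median and -100 = no signal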
Ecoli rRNA inh RFP – recorded beside Ecoli rRNA inh, whose call it bears; RFP signal change, %; measured here: RFP humanized mutant strains;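 first replicate; 0 = DMSO median and -100 = no signal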
Starred values were filed as active, the others as inactive; ? = inconclusive; . = not tested or not shown. Some of the compounds tested (hit frequency here may not be typical).

SMILES	Ecoli rRNA inh	Ecoli rRNA inh OD600	Ecoli rRNA inh RFP	T cruzi repl	Beta apoptosis	Calb FLC	A1 inh	MLL AF4-AF9 inh	Vif TR-FRET	RanGTP-Impb inh
N=C1CCCN1CC(=O)c1cccs1	18	22	0.5	-6	-3	-18	-0.7	-1.3	4%	-4.0
COC(=O)c1ccccc1Nc1ccnc(Cl)n1	-3	-20	0.2	-7	-2	12	0.4	-0.7	.	2.9
Cc1ccc(C(=O)NCc2ccco2)cc1S(=O)(=O)N1CCCC1	2	0	-0.2	-6	4	17	1.0	1.6	1%	-1.3
O=C(Cn1c(O)c(/C=C2\C=Nc3ccccc32)sc1=O)N1CCOCC1	-1	3	-2.1	5	-2	6	0.5	-3.1	?	7.7
O=C(Nc1ccccc1C(F)(F)F)c1ccccc1Br	10	6	4.4	-9	-3	-52	0.5	-3.5	6%	2.0
CCOC(=O)C1=NNC(C(=O)c2ccc(Cl)cc2)C1c1ccccc1 (stereo unspecified)	-18	-39	-8.4	20	2	-11	1.2	8.5	-6%	-3.8
O=C(O)C1Cc2ccccc2CN1C(=O)CSc1nnc2ccccn12 (stereo unspecified)	20	13	0.0	-9	4	3	0.2	0.5	5%	0.7
COc1ccc(-n2c(SCC(=O)N3CCc4ccccc43)nnc2-c2c[nH]c3ccccc23)cc1	7	5	-3.0	7	-5	6	-0.4	0.0	6%	-1.2
Cc1cccc(C)c1OCC(=O)Nc1ccccc1C(=O)N1CCOCC1	-2	9	0.8	-12	4	4	-1.9	1.0	.	-0.1
COc1ccc(N2CCN(C(=O)/C=C/c3ccco3)CC2)cc1	2	0	0.6	-5	-1	35	0.1	1.0	.	-1.3
CCn1nnnc1SCC(=O)Nc1cc(OC)cc(OC)c1	.	.	.	2	-8	11	-0.9	.	1%	2.9
COc1ccc(/C=N/NC(=O)C2CCN(c3ncc(C(F)(F)F)cc3Cl)CC2)cc1	.	.	.	13	-2	-20	0.8	.	26%	-2.5
CC(C)n1cnnc1SCC(=O)Nc1ccc(Br)cc1F	5	8	0.6	-12	-4	7	-0.5	-3.4	6%	1.0
O=C(NC1CCCCC1)C1CCCN1C(=O)Nc1ccccc1 (stereo unspecified)	4	10	-0.9	-8	-2	5	0.4	-4.3	.	-0.9
Cc1cc(CSC(=N)N)c(CSC(=N)N)cc1C	.	.	.	-15	-1	-6	-0.3	6.9	-9%	1.1
COc1cc(OC)cc(C(=O)N2CCN(C3CCN(Cc4ccccc4)CC3)CC2)c1	.	.	.	19	0	-12	0.8	.	13%	3.2
CCOC(=O)C1=C(C)N(CCCC(=O)O)C(=O)NC1c1cccs1 (stereo unspecified)	2	-1	7.7	-2	-2	-11	0.1	-4.6	.	?
CC1Oc2ccccc2C=C1/C=C1/SC(N2CCOCC2)=NC1=O (stereo unspecified)	.	.	.	3	-3	0	0.2	.	0%	-27
COc1cccc2c3c(c(C)nc12)CC(C)O3 (stereo unspecified)	.	.	.	-8	-2	-4	-0.6	.	-6%	1.9
CCCCN(C(=S)Nc1cccc(C)c1C)c1c(N)n(CCC)c(=O)[nH]c1=O	5	6	7.5	-12	-8	8	0.6	-15	2%	9.0
COc1ccc2cc(C3NC(=O)c4ccccc4N3)c(Cl)nc2c1 (stereo unspecified)	13	5	-0.5	-2	0	-1	1.3	0.0	.	4.4
O=C(c1cccc(Cl)c1)N1CCN(C2CCCCCC2)CC1	.	.	.	-2	-4	1	0.2	.	11%	1.4
OC(CNCc1ccc(Cl)cc1)(c1ccccc1)c1ccc(F)cc1 (stereo unspecified)	-9	-18	-2.9	31	-2	4	0.1	-4.4	.	2.2
O=C(Nc1cccc(Cl)c1)NC1CCN(C2CCCCC2)C1 (stereo unspecified)	18	5	2.5	-3	2	-60	0.9	3.6	.	-2.9
Cc1sc(-c2ccccn2)nc1OC(=O)c1ccc(Cl)c(Cl)c1	.	.	.	-6	-1	-6	0.3	.	-6%	?
Cc1ccc(NC(=O)Cc2c(F)cccc2Cl)cc1S(=O)(=O)N1CCOCC1	9	-19	5.2	.	0	.	1.0	-1.1	-11%	.
COc1ccc(-c2noc(N(C)CC(=O)Nc3cccc(C(F)(F)F)c3)n2)cc1	.	.	.	26	3	-7	0.3	.	0%	3.7
CC1CCCCN1CC(=O)Nc1ccc(N2CCCCCC2)cc1 (stereo unspecified)	7	-1	1.0	14	2	-5	0.5	49*	2%	1.3
Cn1c(Cl)nc2ccccc21	.	.	.	5	1	2	0.0	.	1%	-1.2
COc1ccc(S(=O)(=O)NCC2CCCN(C(=O)CC3CCCC3)C2)cc1 (stereo unspecified)	-10	-10	-2.4	1	-4	-3	1.2	-1.0	.	0.3
CCc1ccc2c(c1)c(N=NC1=NC(=O)CS1)c(O)n2CC	.	.	.	2	-8	?	0.2	.	2%	-2.5
Cc1ccc(Sc2ccc(S(=O)(=O)Nc3ccc(C(=O)O)cc3)cc2)cc1C	-56	-76	-17	.	-1	.	0.3	-3.6	.	.
Cc1[nH]c2ccccc2c1C(C[N+](=O)[O-])c1ccco1 (stereo unspecified)	-6	-7	1.7	-2	-9	15	0.3	9.6	11%	7.5
COc1ccc(/C=C2/SC(=S)N(CCCC(=O)Nc3ccccc3C(=O)O)C2=O)cc1	-3	-6	10	3	-9	4	-0.1	2.7	.	-2.3
CCn1c(=O)c(C(=O)NNC(=O)c2ccccc2Br)c(O)c2ccccc21	-50	-50	-9.0	-5	1	2	0.3	-1.7	.	-3.8
O=C1COCCOCCOCCOCC(=O)NCCN1	13	18	2.7	-2	.	0	1.6	-1.4	4%	3.1
CSc1ccc(/C=N/NC(=O)c2ccc(O)cc2)cc1	-2	4	-2.9	7	9	-3	-5.4	4.9	.	-0.6
COc1cccc(N2CCN(C(=O)c3c(C)nn(-c4ccccc4)c3C)CC2)c1	2	-7	2.4	1	-6	?	0.2	-0.1	.	-0.5
C/C=C/n1ccnc1CC(O)(c1ccccc1)c1ccc(C)cc1 (stereo unspecified)	5	-1	1.0	-14	16	-3	-0.4	1.3	.	-2.2
Cc1ccc(N2CN=c3s/c(=C\c4cccnc4)c(=O)n3C2)cc1	.	.	.	-10	-8	-11	1.7	.	4%	2.5
COCCn1c(SCc2nc3sc(C(=O)OC)c(C)c3c(=O)[nH]2)nc2ccccc21	.	.	.	9	4	-6	1.4	.	4%	1.3
CCOc1ccc(OCC(=O)OC(C)C(=O)Nc2ccc(Cl)cn2)cc1 (stereo unspecified)	11	5	4.8	-33	-5	8	-1.0	0.4	-3%	2.2
Cc1ccc(S(=O)(=O)N2[C@@H](c3cccc(Cl)c3)C(C(=O)O)=CC[C@H]2c2ccc(Cl)c(Cl)c2)cc1	-29	-29	0.9	.	-9	.	0.5	-0.8	.	.
Cc1nc2ccccc2n1CC(O)COCC1CC=CCC1 (stereo unspecified)	.	.	.	7	24	2	0.1	.	-2%	-2.1
Cc1ccsc1C1C(C#N)=C(N)N(N(C)C)C2=C1C(=O)CCC2 (stereo unspecified)	5	-8	1.2	2	-5	-4	0.7	1.4	1%	2.2
CCc1ccc(C(=O)COC(=O)c2ccc(-c3nnc(-c4ccccc4)o3)cc2)cc1	.	.	.	-42	-1	-10	-0.6	.	-2%	-1.3
Cc1ccc2c(c1)NC(=O)C(CC(=O)NC1CCCCC1C)O2 (stereo unspecified)	2	1	-0.4	3	-2	2	0.7	-1.7	-3%	-3.9
CC(C)c1nc2sc3c(=O)[nH]cnc3c2c2c1CCCC2	-14	-8	-1.5	0	1	5	-0.1	-0.3	-5%	1.2
Cc1ccc2c(c1)N(CCCC(=O)NCCCN1CCCC1=O)C(=O)CO2	4	-1	0.4	-2	.	3	0.6	49*	4%	1.7
CCC(=O)Nc1nnc(S(=O)(=O)N(CC)c2cc(C)cc(C)c2)s1	-4	2	-5.5	10	-8	0	-0.1	1.2	1%	2.3
Later entries.
SMILES	Ecoli rRNA inh	Ecoli rRNA inh OD600	Ecoli rRNA inh RFP	T cruzi repl	Beta apoptosis	Calb FLC	A1 inh	MLL AF4-AF9 inh	Vif TR-FRET	RanGTP-Impb inh
Cc1ccc2oc(C(=O)N3CCN(CC(=O)NC(C)C)CC3)c(C)c2c1	8	8	15	4	-5	0	-0.2	-0.7	.	-1.3
CCCOc1ccc(C2C(C(=O)c3ccco3)=C(O)C(=O)N2CCN2CCOCC2)cc1OC (stereo unspecified)	.	.	.	-16	1	-14	-0.7	.	5%	-1.0
CSCCC(NC(=O)c1ccc(Cl)cc1)C(=O)OCC(=O)c1ccc[nH]1 (stereo unspecified)	.	.	.	-3	3	-6	-3.1	.	.	-3.8
O=C(NC1CCN(S(=O)(=O)c2cccc(Cl)c2)CC1)C1CCCCC1	7	16	0.1	5	2	5	-1.8	3.8	.	?
O=C(COC(=O)c1c(Cl)ccc(Cl)c1Cl)NC(=O)NCc1ccccc1	-1	6	0.1	11	-5	?	0.5	5.1	-10%	8.6
COc1ccc(CCN=C(N)NS(=O)(=O)c2ccc(F)cc2)cc1	1	4	0.1	-15	-7	15	0.3	0.4	2%	-2.3
Brc1cc2c(cc1-c1nc3ccccc3s1)OCO2	5	1	-0.9	7	2	-4	-0.5	0.6	.	0.5
CCOc1ccc(NC(=O)CN(C)C(=O)CCc2ccccc2Cl)cc1OCC	-20	-21	-0.7	6	-6	-1	0.9	-8.3	.	0.4
COc1ccccc1N1CCN(C(=O)c2ccc(N3CCCCS3(=O)=O)cc2)CC1	-3	-6	0.7	-15	-8	6	0.3	-0.4	.	1.8
O=C1CCN(Cc2cccnc2)CCN1[C@H](CO)c1ccccc1	8	7	-1.5	-10	-7	-5	-0.6	0.3	.	0.7
O=C(C1CCCN(Cc2cccc(F)c2)C1)N1CCCCC1 (stereo unspecified)	.	.	.	39	-1	-4	2.9	.	-1%	0.0
Cc1cccc(OC(=O)c2sc3ncn(C)c(=O)c3c2C)c1	-3	0	3.6	-1	-3	6	-2.0	-0.8	-1%	2.1
Cc1ccc(NC(=O)CNC(=O)Cc2cccc3ccccc23)c(O)c1	2	8	0.9	-11	-7	3	-0.5	-0.3	1%	1.6
CNC(=S)NNC(=O)c1sccc1OCc1ccc(Cl)cc1Cl	.	.	.	-3	-1	28	0.7	.	5%	-2.3
Cc1ccccc1-c1nc(CS(=O)(=O)CC(=O)NCCCN2CCCC2=O)c(C)o1	8	14	2.5	-5	-2	3	-0.9	0.0	-4%	-3.7
Cc1cc(C(=O)N/N=C/c2cccnc2)cs1	7	8	2.6	-5	-4	4	0.2	-1.5	.	-3.9
Cc1cc(NC(=O)c2ccc(Cl)cc2Cl)n(-c2ccccc2)n1	-9	3	-3.0	.	-3	.	0.1	0.4	.	.
